Mtb growth – Mycobacterium tuberculosis H37Rv growth inhibition, cell based, confirmatory dose response (AID 1949). 100,000 tested, 1.6% active. inhibition, % at 10 µg/mL, or IC50 in µg/mL where a hit was titrated. most inactive calls were filed without a number and no value below 0 was filed. M. tuberculosis H37Rv growth inhibition;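 active = confirmed in a dose series; inconclusive = about 50% or more but not retested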;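 note: bacteria grown 7 days with compound before Alamar blue readout; 0% = untreated bacteria and 100% = reference antibiotic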
* marks the source's active call; other numbers are inactive results.

`CC(=O)c1ccc(NC(=S)NC(NC(=O)c2ccc(C)cc2)C(Cl)(Cl)Cl)cc1` (stereo not given) gave Mtb growth 6%.
Screening CCOC(=O)c1c(NC(=S)Nc2ccc(S(=O)(=O)Nc3cc(OC)ncn3)cc2)sc2c1CCCC2 returned Mtb growth inactive.
`C=CCNC(=O)c1cc(Cl)ccc1Cl` gave Mtb growth inactive.
`O=C1C2C3c4ccccc4C(c4ccccc43)C2C(=O)N1Cc1ccccc1Cl` (stereo not given) gave Mtb growth inactive.
For COc1ccc(OCCCCCOc2ccc(OC)cc2)cc1 the results were Mtb growth inactive.
O=C(Nc1ccc(Cl)cc1F)c1sc2cc(Cl)ccc2c1Cl was read as Mtb growth inactive.
Screening O=C(Cc1ccccc1)NC(=S)Nc1ccc2oc(-c3cc(F)c(F)cc3Cl)nc2c1 returned Mtb growth inactive.
Screening Cc1cccc(NC(=O)CCN2C(=O)C3C4CCC(C4)C3C2=O)c1C (stereo not given) returned Mtb growth inactive.
Screening Cc1ccccc1CN1CCN(C(=O)COc2ccccc2)CC1 returned Mtb growth inactive.
For COc1cc2c(c(OC)c1OC)C(c1cccc(Cl)c1Cl)CC(=O)N2 (stereo not given) the results were Mtb growth inactive.
`CCn1c(SCC(=O)Nc2ccc(Br)cc2C(C)C)nnc1-c1ccccc1C` gave Mtb growth 2%.
For N#COc1ccc(Nc2ccc(OC#N)cc2)cc1 the results were Mtb growth 1%.
Screening OCCNCCCCCOc1ccc(F)cc1 returned Mtb growth inactive.
`Cc1ccc(F)c(NC(=O)C(C)Oc2ccccc2)c1` (stereo not given) gave Mtb growth inactive.
`O=C(CCS(=O)(=O)Cc1ccccc1)Nc1nnc(Cc2ccc(Cl)cc2)s1` gave Mtb growth inactive.
For COc1ccc(Cl)cc1N(CC(=O)N1CCN(C)CC1)S(C)(=O)=O the results were Mtb growth inactive.
Screening CC(C)(C)c1csc(NC(=O)CCn2cnc3ccccc3c2=O)n1 returned Mtb growth 5%.
For COc1cc(C(=O)OCC2CC(c3ccccc3)=NO2)cc(OC)c1OC (stereo not given) the results were Mtb growth inactive.
C=CCn1c(SCC(=O)c2ccc(Cl)cc2)nc2scc(-c3ccc(C)o3)c2c1=O was read as Mtb growth inactive.
O=C(Nc1cccc2ccccc12)N1CCN(c2cccc(C(F)(F)F)c2)CC1 was read as Mtb growth inactive.
`CC(Sc1nnnn1-c1ccccc1)C(=O)Nc1nccs1` (stereo not given) gave Mtb growth inactive.
COc1ccccc1C(=O)N/C(=C/c1ccccc1)C(=O)NCCCOC(C)=O was read as Mtb growth inactive.
S=C(c1cn(Cc2ccccc2Cl)c2ccccc12)N1CCOCC1 was read as Mtb growth inactive.
Cc1ccccc1CN(CC(=O)Nc1ccccc1C(F)(F)F)S(=O)(=O)c1ccc(Cl)cc1 was read as Mtb growth inactive.
For O=C(NC(=S)Nc1ccc(Cl)cc1)c1ccc(Br)o1 the results were Mtb growth 1%.
For COc1ccc(NC(=O)c2cccnc2)c([N+](=O)[O-])c1 the results were Mtb growth inactive.
For CC1CN(C(=O)COc2ccccc2)C(C)CN1C(=O)COc1ccccc1 (stereo not given) the results were Mtb growth inactive.
Screening O=C(C1=C(O)C(=O)N(CCCN2CCOCC2)C1c1cccnc1)c1cc2ccccc2o1 (stereo not given) returned Mtb growth inactive.
Cc1ccc(OCCOCCn2ccnc2)c(Br)c1 was read as Mtb growth inactive.
Screening CCOc1cc(C(=O)Nc2sc3c(c2C(N)=O)CCCCCC3)cc(OCC)c1OCC returned Mtb growth inactive.
For Cc1c(C)c2ccc(OCc3cccc(Br)c3)cc2oc1=O the results were Mtb growth 47%.
For COC(=O)c1cc(OC)c(OC)cc1NC(=O)c1c(C)noc1C the results were Mtb growth inactive.
For Cc1cc(Br)cc(C)c1NC(=O)c1ccc(Cl)cc1 the results were Mtb growth 46%.
`Nc1ccc(OC(F)(F)C(F)F)c(N)c1` gave Mtb growth 1%.
Screening CC(Sc1nc(N)cc(N)n1)C(=O)Nc1cccc(Cl)c1 (stereo not given) returned Mtb growth inactive.
COc1cc(C(=O)Oc2ccc(C(=O)Nc3ccc(Cl)cc3)cc2)cc(OC)c1OC was read as Mtb growth inactive.
For Cc1ccc(S(=O)(=O)N(CC(=O)N2CCCCC2)c2cccc(C)c2C)cc1 the results were Mtb growth inactive.
CSc1ccccc1NC(=O)CSc1nnnn1-c1ccccc1SC was read as Mtb growth 2%.
CCCC(=O)c1ccc(N2CCN(CC)CC2)c(F)c1 was read as Mtb growth 5%.
Screening COc1ccccc1CC(=O)Nc1ccc(S(=O)(=O)N2CCOCC2)cc1 returned Mtb growth inactive.
Screening Cc1cc(C)cc(NC(=O)COc2ccc(N3CC(C(N)=O)CC3=O)cc2)c1 (stereo not given) returned Mtb growth inactive.
`CC(=O)C1=C(c2ccccc2)NC(=S)NC1c1ccccc1` (stereo not given) gave Mtb growth 4%.
Screening CCOc1ccc(CC(=O)O)cc1OCC returned Mtb growth inactive.
Screening CCOc1cccc(C2C(C(=O)Nc3ccccc3OC)=C(C)NC3=C2C(=O)CCC3)c1 (stereo not given) returned Mtb growth 1%.
Screening CCC(c1ccc([N+](=O)[O-])c2ncccc12)S(=O)(=O)c1ccc(C)cc1 (stereo not given) returned Mtb growth inactive.
CC1=C(C(=O)Nc2ccccc2C)C(c2ccccc2[N+](=O)[O-])n2ncnc2N1 (stereo not given) was read as Mtb growth inactive.
O=C(Cn1c(=O)n(-c2cccc(Cl)c2)c(=O)n1CC(=O)N1CCCCC1)N1CCCCC1 was read as Mtb growth inactive.
For O=C(Nc1ccc2c(c1)OCO2)c1cnccn1 the results were Mtb growth inactive.
`CCC(=O)Nc1ccc(-c2nnc(SCc3c(Cl)cccc3Cl)n2C)cc1` gave Mtb growth inactive.
Screening COc1ccccc1-n1c(CSc2ccccn2)nc2ccccc2c1=O returned Mtb growth inactive.
Screening C/C(=N\N=C1\NC(=O)C(CC(=O)Nc2ccccc2C(F)(F)F)S1)C1CCCCC1 (stereo not given) returned Mtb growth 1%.
For COc1ccc(CCNc2c([N+](=O)[O-])c(=O)n(C)c3ccccc23)cc1OC the results were Mtb growth inactive.
Screening Cc1nc(NC(CC(C)C)C(=O)O)c2c3c(sc2n1)CCCC3 (stereo not given) returned Mtb growth 4%.
`CCN(CC)C(=O)CSc1nc(-c2ccco2)cc(C(F)(F)F)c1C#N` gave Mtb growth inactive.
`CCOC(=O)/C(C#N)=C/c1c(C)cc(C)c(Cc2c(C)cc(C)c(/C=C(\C#N)C(=O)OCC)c2C)c1C` gave Mtb growth 3%.
`COc1ccc(C(=O)CCC(=O)Nc2ccc(Cl)c(Cl)c2)cc1OC` gave Mtb growth inactive.
For O=C(Nc1nc(-c2ccc(F)cc2)cs1)c1cccc2ccccc12 the results were Mtb growth 32%.
For O=C(CN(c1ccc(F)cc1)S(=O)(=O)c1ccccc1)Nc1ccccc1-c1ccccc1 the results were Mtb growth 16%.
Screening CC(Oc1ccc(Br)cc1)C(=O)NCCC1=CCCCC1 (stereo not given) returned Mtb growth inactive.
C=CCSc1nc(N)c(-c2nc(-c3ccccc3)cs2)cc1C(N)=O was read as Mtb growth inconclusive.
Screening CNC(=O)C1=C(C)NC(=S)NC1c1cc(Br)cc(OC)c1OC (stereo not given) returned Mtb growth inactive.
COc1ccccc1Oc1ccc(NC(=O)Cc2ccccc2)cc1 was read as Mtb growth 0%.
`CCCCOc1ccc(C(=O)NCc2ccco2)cc1OC` gave Mtb growth inactive.
Screening O=C(Nc1ccn(Cc2ccc(F)cc2)n1)c1cnn2c(C(F)F)cc(-c3ccccc3)nc12 returned Mtb growth inactive.
Cc1ccc(S(=O)(=O)N(CC(=O)Nc2ccc(F)cc2F)c2cccc(Cl)c2C)cc1 was read as Mtb growth inactive.
Screening O=C(CN(c1ccc([N+](=O)[O-])cc1)S(=O)(=O)c1ccccc1)Nc1cccc(F)c1 returned Mtb growth inactive.
For O=C1CC(c2ccccc2Cl)CC2=C1C(c1ccccc1F)Nc1ccccc1N2 (stereo not given) the results were Mtb growth 36%.
For C=CCn1c(CNC(=O)c2ccc(Cl)c(Cl)c2)nnc1SCC(=O)Nc1ccc(Cl)cc1 the results were Mtb growth 38%.
Screening O=C(CC(NC1CCCC1)C(=O)O)Nc1cccc(Cl)c1 (stereo not given) returned Mtb growth 1%.
`Cc1ccc(OCCSc2nnc(NC(=O)c3cccc(F)c3)s2)cc1` gave Mtb growth inactive.
`CCOC(=O)C(C(=O)NCCCN1CCOCC1)C1CCCCC1` (stereo not given) gave Mtb growth inactive.
For COC(=O)c1ccc(NC(=O)C(C)NS(=O)(=O)c2ccc(Cl)cc2)cc1 (stereo not given) the results were Mtb growth inactive.
For CC(Oc1ccc(C(C)(C)C)cc1)C(=O)Nn1cnnc1 (stereo not given) the results were Mtb growth inactive.
C=CCN(c1ccc(C(=O)NC2CCCC2)cc1)S(C)(=O)=O was read as Mtb growth inactive.
For O=C(CC12CC3CC(CC(C3)C1)C2)Nc1ccccc1OC(F)F the results were Mtb growth 5%.
`COc1ccc(-n2nc3cc(C)c(NC(=S)NC(C)=O)cc3n2)cc1Cl` gave Mtb growth inactive.
`COc1ccc(C(=O)Oc2cc(=O)oc3ccccc23)cc1` gave Mtb growth 2%.
Screening COc1ccc(Cl)cc1NC(=O)c1ccc(-c2ccc(C)c(Cl)c2)o1 returned Mtb growth inactive.
Screening O=C(O)c1ccc(CNC(=O)c2ccc(Br)o2)cc1 returned Mtb growth inactive.
Screening O=C(Nc1c(C(=O)Nc2ccccc2)cnn1-c1ccccc1)c1ccccc1Cl returned Mtb growth 2%.
For CCc1ccccc1NC(=O)CSc1nc(-c2ccc(F)cc2)cc(C(F)(F)F)n1 the results were Mtb growth inactive.
CC(C)(O)C#Cc1ccc(C(=O)N2CCN(c3ccc([N+](=O)[O-])cc3)CC2)cc1 was read as Mtb growth 3%.
`Cc1cc(C(=O)Nc2nc(-c3cccc4ccccc34)cs2)ccc1[N+](=O)[O-]` gave Mtb growth 6%.
CC(C)(C)c1oc(C(=O)O)cc1COCC(F)(F)F was read as Mtb growth inactive.
For COc1ccccc1C(=O)N/C(=C/c1ccc(Br)cc1)C(=O)NCCOC(C)=O the results were Mtb growth inactive.
For CCC(C)c1ccccc1NC(=O)c1c(F)c(F)c(F)c(F)c1F (stereo not given) the results were Mtb growth inactive.
`Fc1ccc(NC(=S)NNC(=S)Nc2cccc3ccccc23)c(F)c1` gave Mtb growth inactive.
`CCC(C)NCCOCCOc1ccc(Br)cc1C` (stereo not given) gave Mtb growth inactive.
Screening O=C(OCC#CCSc1nnc(-c2ccncc2)o1)c1ccc(Br)cc1 returned Mtb growth inactive.
For Cc1cc(Br)c(NC(=O)CSc2nnc(CSCc3ccccc3)n2C)cc1C the results were Mtb growth inactive.
Screening COCCCNCCCCOc1cc(C(C)C)ccc1C returned Mtb growth inactive.
`CCn1c(SCC(=O)Nc2ccc(F)cc2)nnc1C(C)NC(=O)c1ccc(Cl)cc1` (stereo not given) gave Mtb growth 1%.
For COc1ccc(S(=O)(=O)N(CC(=O)N2CCN(c3cccc(Cl)c3)CC2)c2cc(Cl)ccc2OC)cc1OC the results were Mtb growth inactive.
Screening COc1cc2c(cc1NC(=S)Nc1ccc(OC)c(OC)c1)oc1ccccc12 returned Mtb growth 25%.
For COc1ccccc1-c1c(C)nn2c(N)c(-c3ccc(Cl)cc3)cnc12 the results were Mtb growth inactive.
`Cc1ccccc1C(=O)Nc1ccc([N+](=O)[O-])c(C)c1C` gave Mtb growth 5%.
For Cc1cc2nc(-c3ccc(OC(C)C)cc3)cc(C(F)(F)F)n2n1 the results were Mtb growth 4%.
`CCCNC(=O)c1ccccc1NS(=O)(=O)c1ccc(Br)cc1` gave Mtb growth inactive.
For Cc1ccc(C(=O)N2CCN(c3ccc(NC(=O)c4ccc5c(c4)OCCO5)cc3)CC2)cc1 the results were Mtb growth inactive.

16 structures already listed, ordered by SMILES length, low to high.
`CCC(C)NCCOCCOc1ccc(Br)cc1C` (stereo not given) gave Mtb growth inactive.
Screening COCCCNCCCCOc1cc(C(C)C)ccc1C returned Mtb growth inactive.
CC(C)(C)c1oc(C(=O)O)cc1COCC(F)(F)F was read as Mtb growth inactive.
`COc1ccc(C(=O)Oc2cc(=O)oc3ccccc23)cc1` gave Mtb growth 2%.
`CCCNC(=O)c1ccccc1NS(=O)(=O)c1ccc(Br)cc1` gave Mtb growth inactive.
For CCC(C)c1ccccc1NC(=O)c1c(F)c(F)c(F)c(F)c1F (stereo not given) the results were Mtb growth inactive.
`Fc1ccc(NC(=S)NNC(=S)Nc2cccc3ccccc23)c(F)c1` gave Mtb growth inactive.
For Cc1cc2nc(-c3ccc(OC(C)C)cc3)cc(C(F)(F)F)n2n1 the results were Mtb growth 4%.
For COc1ccccc1-c1c(C)nn2c(N)c(-c3ccc(Cl)cc3)cnc12 the results were Mtb growth inactive.
Screening COc1cc2c(cc1NC(=S)Nc1ccc(OC)c(OC)c1)oc1ccccc12 returned Mtb growth 25%.
Screening O=C(Nc1c(C(=O)Nc2ccccc2)cnn1-c1ccccc1)c1ccccc1Cl returned Mtb growth 2%.
For CCc1ccccc1NC(=O)CSc1nc(-c2ccc(F)cc2)cc(C(F)(F)F)n1 the results were Mtb growth inactive.
`CCn1c(SCC(=O)Nc2ccc(F)cc2)nnc1C(C)NC(=O)c1ccc(Cl)cc1` (stereo not given) gave Mtb growth 1%.
`Cc1cc(C(=O)Nc2nc(-c3cccc4ccccc34)cs2)ccc1[N+](=O)[O-]` gave Mtb growth 6%.
For Cc1ccc(C(=O)N2CCN(c3ccc(NC(=O)c4ccc5c(c4)OCCO5)cc3)CC2)cc1 the results were Mtb growth inactive.
For COc1ccc(S(=O)(=O)N(CC(=O)N2CCN(c3cccc(Cl)c3)CC2)c2cc(Cl)ccc2OC)cc1OC the results were Mtb growth inactive.

Grouped by structure, the entries above containing a cyano group (three)
For N#COc1ccc(Nc2ccc(OC#N)cc2)cc1 the results were Mtb growth 1%.
`CCN(CC)C(=O)CSc1nc(-c2ccco2)cc(C(F)(F)F)c1C#N` gave Mtb growth inactive.
`CCOC(=O)/C(C#N)=C/c1c(C)cc(C)c(Cc2c(C)cc(C)c(/C=C(\C#N)C(=O)OCC)c2C)c1C` gave Mtb growth 3%.

Screens as filed in PubChem BioAssay.

This is a subset; count on the stated rates, not on these rows.
